Source: PubChem BioAssay
HNF4A DNA FP: change in binding of human HNF4 alpha to DNA. 0.3% of 360,000 active. AID 1224865. P41235. activity change, % at 10 µM. HNF4a-FITC DNA binding, fluorescence polarization, 1 h; in the data active = activity change above about 30%, passing the limit was not always enough;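 also: controls were the assay level and a saturating level of protein; the project sought stronger binding though the title names inhibitors; some compounds called inactive have numbers as strong as hits; positive values seem to mean higher polarization but the record does not say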
MLL AF4-AF9 inh: inhibitors of human MLL-AF4/AF9 interaction; 0.47% of 350,000 active; P42568; inhibition, % at 10 µM; AlphaScreen, biotin-AF4 peptide binding to FLAG-AF9;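 active = every replicate reaching a set inhibition limit, whatever the replicate mean, cut at about 25% in these data; inconclusive = mean inhibition reaches that limit but some replicates miss it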;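 also: 0% = plate neutral control median and 100% = total signal loss; the record names both 10 and 1 µM as test concentration; the first replicate is given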
Target sequence (P42568 whole entry, looked up): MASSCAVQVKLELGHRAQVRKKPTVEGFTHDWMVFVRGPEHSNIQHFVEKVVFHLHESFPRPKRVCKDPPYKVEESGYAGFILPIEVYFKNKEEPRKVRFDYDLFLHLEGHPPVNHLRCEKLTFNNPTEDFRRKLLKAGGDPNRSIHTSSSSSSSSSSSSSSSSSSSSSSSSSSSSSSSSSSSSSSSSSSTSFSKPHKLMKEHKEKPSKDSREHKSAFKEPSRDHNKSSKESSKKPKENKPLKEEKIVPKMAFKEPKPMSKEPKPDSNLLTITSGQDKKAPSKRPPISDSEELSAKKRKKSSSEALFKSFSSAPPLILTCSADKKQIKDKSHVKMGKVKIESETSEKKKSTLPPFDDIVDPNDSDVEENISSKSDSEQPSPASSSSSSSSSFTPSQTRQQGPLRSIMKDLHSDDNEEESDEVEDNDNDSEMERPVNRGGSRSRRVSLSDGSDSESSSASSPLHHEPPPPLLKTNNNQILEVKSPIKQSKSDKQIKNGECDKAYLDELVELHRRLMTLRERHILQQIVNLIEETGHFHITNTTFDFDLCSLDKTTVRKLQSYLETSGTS
Vif TR-FRET: HIV-1 Vif–A3G interaction blockers – biochemical, TR-FRET, GST-Vif 1-94, biotin-A3G peptide, dose response retest, primary screen (AID 1117319); one-dose inhibition, %; IC50 in µM for titrated hits; TR-FRET GST-Vif / biotin-A3G peptide binding; higher % means a stronger effect; test concentration not given here; strong numbers were not always called active; 0.57% of 260,000 active;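 active = above the screen mean plus three standard deviations and confirmed in dose response; inconclusive = results disagree or hit not tested in dose response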;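 also: Vif residues 1-94 fused to GST binding biotinylated APOBEC3G peptide 110-148; 0% = full assay without inhibitor and 100% = GST in place of GST-Vif; retest series ran down from 100 µM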
FGF22 binding: binders of recombinant human FGF22 by thermal shift; Q9HCT0; SYPRO orange fluorescence; percent of sucrose octasulfate shift, DMSO zero; calls only at 9.99 µM; 1.5% of 340,000 active; AID 651658;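 active = melting point raised past a set limit in the mean and every replicate; inconclusive = no clear call; three in four hits are not shown here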
Target sequence (Q9HCT0 whole entry, looked up): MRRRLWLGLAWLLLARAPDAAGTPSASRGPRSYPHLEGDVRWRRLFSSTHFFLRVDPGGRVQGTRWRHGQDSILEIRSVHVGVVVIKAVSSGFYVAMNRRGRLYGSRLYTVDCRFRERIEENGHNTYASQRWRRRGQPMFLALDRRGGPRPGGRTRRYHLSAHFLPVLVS
Ecoli growth: inhibitors of Escherichia coli growth. OD600, 23 h; active compounds read low. OD600 absorbance (test concentration not listed). 0.21% of 330,000 active. AID 1053175;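 active = OD600 absorbance below the run mean of sample wells minus 3.6 SD, in any replicate, cut at about 0.56 in these data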;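 also: stock transfer was 300 nL into about 60 µL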
ALR H2O2 inh: human ALR oxidase inhibition via reduced H2O2; AID 485317; purified ALR, DTT oxidation, H2O2 HRP-luminol luminescence; inhibition, % (test concentration not listed); 3.8% of 290,000 active; P55789;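 active = mean and each replicate at 75% or more; inconclusive = only one of the two met; inactive = neither met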;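 also: stock transfer was 7.5 nL into about 7.5 µL; 0% = neutral wells and 100% = wells with inactivated enzyme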
Target sequence (P55789 whole entry, looked up): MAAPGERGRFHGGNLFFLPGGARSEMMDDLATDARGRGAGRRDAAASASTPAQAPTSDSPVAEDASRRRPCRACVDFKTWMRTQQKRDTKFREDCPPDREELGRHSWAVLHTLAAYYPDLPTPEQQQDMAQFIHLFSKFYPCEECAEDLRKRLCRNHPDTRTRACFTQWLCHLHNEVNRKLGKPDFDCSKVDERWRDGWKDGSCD
Ecoli rRNA inh: inhibitors of bacterial rRNA selective over humanized ribosomes | E. coli WT GFP vs humanized-ribosome RFP mutants, fluorescence, 24 h; active compounds read low; DMSO median 0, no signal -100 | GFP signal change (wild-type ribosome), % (no concentration beside the values) | 1.6% of 350,000 active;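 active = significant combined selectivity score with lowered wild-type GFP, culture density cut under 30%, mutant RFP and density less affected; inactive = any of these conditions unmet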; also: one replicate is shown; some compounds called inactive have numbers as strong as hits
Ecoli rRNA inh OD600: also measured in Ecoli rRNA inh; calls as there; OD600 change, %; measured here: OD600 growth;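 optical density of the mix in the first replicate; 0 = DMSO median and -100 = no signal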
Ecoli rRNA inh RFP: recorded beside Ecoli rRNA inh, whose call it bears; RFP signal change, %; measured here: RFP humanized mutant strains;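 first replicate; 0 = DMSO median and -100 = no signal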
* marks the source's active call; other numbers are inactive results; i = inactive; ? = inconclusive; · = not tested or not shown. Only part of the results is shown; the hit share may differ from the screen's.

SMILES | HNF4A DNA FP | MLL AF4-AF9 inh | Vif TR-FRET | FGF22 binding | Ecoli growth | ALR H2O2 inh | Ecoli rRNA inh | Ecoli rRNA inh OD600 | Ecoli rRNA inh RFP
COc1ccccc1CN1C(=O)CN(C2CCCC2)C(=O)C1c1ccc(F)cc1 (stereo not drawn) | -2.4 | 1.3 | -2% | i | 0.69 | 1 | -36 | -45 | -3.7
O=C(Nc1nnc(S(=O)(=O)N2CCN(c3ccc(F)cc3)CC2)s1)c1ccccc1 | -3.6 | -9.7 | · | i | · | -8 | -1 | 13 | -1.1
CCN(CCCNC(=O)C1CCN(S(=O)(=O)CC)CC1)c1cccc(C)c1 | -1.1 | -4.8 | ? | i | 0.67 | 99* | -1 | 2 | 1.5
C[C@@H]1CCCCO[C@@H](CN(C)C(=O)NC2CCCCC2)[C@H](C)CN([C@@H](C)CO)C(=O)c2cc(NC(=O)Nc3ccc(F)cc3)ccc2O1 | · | 2.1 | · | i | · | · | 0 | -7 | -1.5
CCn1nnc(NC(=O)C(C)(c2ccccc2)c2ccccc2)n1 | 2.6 | -7.7 | · | i | 0.67 | -5 | 0 | 7 | -2.6
Cc1c2cnn(CC(=O)N3CCOCC3)c(=O)c2c(C)n1Cc1ccccc1F | 2.9 | -3.1 | · | i | 0.7 | -5 | 0 | -1 | -2.3
CCCC(=O)c1cc(-c2nc3ccccc3n2C)n(C)c1 | -4.8 | · | ? | · | 0.73 | 3 | · | · | ·
COc1cc(OC)cc(C(=O)NC(=S)Nc2nnn(C)n2)c1 | 2.8 | · | 13% | i | 0.69 | 9 | 8 | 5 | 3.4
N#C[C@H]1[C@H](c2ccc(C#Cc3ccccc3F)cc2)[C@H](CO)N1C(=O)c1cccnc1 | · | -3.2 | · | i | · | · | -4 | -38 | -3.9
C[C@H](CO)N1C[C@H](C)[C@H](CN(C)Cc2ccc(Cl)c(Cl)c2)Oc2ccc(NS(=O)(=O)c3cccs3)cc2C1=O | · | -1.4 | · | i | · | · | -8 | -53 | 20
COc1ccc(NC(=O)Nc2ccc3c(c2)C(=O)N([C@H](C)CO)C[C@H](C)[C@H](CN(C)C(=O)Nc2c(C)noc2C)OCCCC[C@@H](C)O3)cc1 | · | -0.8 | · | i | · | · | 3 | 9 | -0.3
O=C(C[C@@H]1C[C@@H]2c3cc(NC(=O)C4CCC4)ccc3O[C@@H]2[C@@H](CO)O1)NCc1cccnc1 | · | -11 | · | i | · | · | 3 | 6 | 1.5
O=C(CCCC(=O)OCC(Cl)=C(Cl)Cl)Nc1ccccc1 | -4.6 | 2.0 | 21% | i | 0.7 | -3 | -2 | -11 | -9.0
CC(=O)N(CCC(c1ccco1)C(C)C)Cc1ccc(Cl)cc1 (stereo not drawn) | -2.1 | -0.9 | -5% | i | 0.69 | · | · | · | ·
C[C@@H]1CN([C@@H](C)CO)C(=O)c2cc(NC(=O)Nc3ccccc3)ccc2O[C@@H](C)CCCCO[C@@H]1CN(C)S(=O)(=O)c1ccccc1 | · | -1.1 | · | i | · | · | -2 | 5 | -1.2
Cc1ccc(-c2cn(S(=O)(=O)c3cccc4nsnc34)nc2N)cc1 | -3.9 | · | 6% | · | 0.73 | · | · | · | ·
COC(=O)c1cc(OC)c(OC)cc1N1C(=O)CCCC1=O | -0.2 | · | 13% | · | 0.65 | · | · | · | ·
COc1cc2cc(C(=O)N/N=C/c3ccccc3Cl)[nH]c2cc1OC | -3.7 | 0.6 | 10% | i | · | -1 | -39 | -73 | 10
COC(=O)Cc1ccc(NC(=S)N2CCCCC2C)cc1 (stereo not drawn) | -1.2 | -2.5 | 9% | i | 0.69 | -9 | 14 | 18 | 1.6
CCc1ccc(-c2nc(SCC(=O)c3c(N)n(C)c(=O)n(C)c3=O)n[nH]2)cc1 | 5.3 | 1.8 | -5% | i | 0.67 | -4 | 3 | 8 | 2.3
COc1cc(Cl)c(NC2=CC(=O)C(=O)c3ccccc32)c(OC)c1 | 2.9 | 5.8 | · | i | 0.69 | 36 | -7 | -9 | 17
COC(=O)c1ccc(NC(=O)Cc2ccc(C)cc2)cc1 | 2.6 | · | -2% | · | 0.74 | -3 | · | · | ·
O=C(C[C@H]1CC[C@@H]2[C@H](COC[C@H](O)CN2C(=O)Nc2ccc(F)cc2)O1)NCC1CC1 | · | 1.4 | · | i | · | · | 0 | 20 | 0.6
Cn1cnc([N+](=O)[O-])c1Sc1nnc(-c2cccnc2)n1C | -5.1 | -2.9 | 4% | i | 0.62 | 5 | 0 | 8 | 0.7
CCOC(=O)c1[nH]cnc1C(=O)N1CCN(C(=O)OC(C)(C)C)CC1 | -3.0 | -1.0 | · | i | 0.68 | 2 | 7 | 2 | 17
CC1(C(=O)NC2CCCCCCC2)CC1(Cl)Cl (stereo not drawn) | 2.9 | · | 9% | · | 0.69 | -7 | · | · | ·
Cc1ccccc1NC(=O)COC(=O)/C=C/c1cccc(C(F)(F)F)c1 | 1.8 | 0.2 | 14% | i | 0.72 | · | · | · | ·
CC(C)NC(=O)Nc1ccc2c(c1)C(=O)N([C@@H](C)CO)C[C@@H](C)[C@@H](CN(C)S(=O)(=O)c1ccc(Cl)cc1)OCCCC[C@@H](C)O2 | · | 0.4 | · | i | · | · | -4 | -2 | -2.6
COc1ccc(/C=C(\NC(=O)c2ccccc2)C(=O)NCC2CCCO2)cc1 (stereo not drawn) | -1.3 | -5.6 | · | i | 0.7 | 1 | 6 | 1 | -1.2
C[C@H]1CN([C@@H](C)CO)C(=O)Cc2cc(NC(=O)CCCCCC(=O)Nc3ccccc3N)ccc2O[C@@H]1CN(C)C(=O)Nc1ccc2c(c1)OCO2 | · | 1.2 | · | i | · | · | 7 | 0 | -1.2

Part of the list above, with values ahead of the structure.
HNF4A DNA FP | MLL AF4-AF9 inh | Vif TR-FRET | FGF22 binding | Ecoli growth | ALR H2O2 inh | Ecoli rRNA inh | Ecoli rRNA inh OD600 | Ecoli rRNA inh RFP | SMILES
5.3 | 1.8 | -5% | i | 0.67 | -4 | 3 | 8 | 2.3 | CCc1ccc(-c2nc(SCC(=O)c3c(N)n(C)c(=O)n(C)c3=O)n[nH]2)cc1
2.9 | 5.8 | · | i | 0.69 | 36 | -7 | -9 | 17 | COc1cc(Cl)c(NC2=CC(=O)C(=O)c3ccccc32)c(OC)c1
2.6 | · | -2% | · | 0.74 | -3 | · | · | · | COC(=O)c1ccc(NC(=O)Cc2ccc(C)cc2)cc1
· | 1.4 | · | i | · | · | 0 | 20 | 0.6 | O=C(C[C@H]1CC[C@@H]2[C@H](COC[C@H](O)CN2C(=O)Nc2ccc(F)cc2)O1)NCC1CC1

(listing goes on)
SMILES | HNF4A DNA FP | MLL AF4-AF9 inh | Vif TR-FRET | FGF22 binding | Ecoli growth | ALR H2O2 inh | Ecoli rRNA inh | Ecoli rRNA inh OD600 | Ecoli rRNA inh RFP
O=C(OCC(O)CO)c1ccccc1Nc1ccnc2cc(Cl)ccc12 (stereo not drawn) | 4.9 | -3.5 | · | i | 0.68 | · | · | · | ·
COc1ccc2c3c(n(C)c2c1)[C@@H](CO)N(C(=O)c1ccccc1)CC31CCN(C)CC1 | · | 7.8 | · | i | · | · | 3 | 3 | -5.1
O=C(NCC(=O)N(c1ccccc1)C(C(=O)NC1CCCC1)c1ccncc1)c1ccco1 (stereo not drawn) | 2.7 | · | 5% | · | 0.63 | -7 | · | · | ·
CCN(CC)CCCNC(=O)c1cn(C)c2ccc(S(=O)(=O)N(C)C3CCCCC3)cc2c1=O | 0.2 | 0.5 | · | i | 0.66 | 0 | -3 | 14 | -1.6
C[C@@H]1CN([C@H](C)CO)C(=O)c2cc(-c3ccncc3)cnc2O[C@H]1CN(C)C(=O)C1CCCCC1 | · | -1.8 | · | i | · | · | 2 | 2 | -0.7
Cc1ccc(SCCC(=O)Nc2ccc(OCc3ccccc3)cc2)cc1 | 5.4 | · | 0% | · | · | -5 | · | · | ·
CCC(=O)Nc1cccc(NC(=O)c2ccc(C)cc2Cl)c1 | -3.6 | -1.1 | · | i | 0.66 | · | -1 | 7 | -4.4
COC(=O)c1ccccc1S(=O)(=O)N1CCC(C(=O)Nc2ccccc2N2CCOCC2)CC1 | 4.7 | -4.7 | · | i | 0.73 | · | -1 | -3 | -3.1
CN(C)S(=O)(=O)c1ccc(C(=O)NCc2nnc(SCC(=O)c3ccccc3)o2)cc1 | 2.6 | 0.1 | · | i | 0.63 | 23 | · | · | ·
COC(=O)[C@]12C[C@H](CC(=O)NCc3ccccc3)C(=O)N(Cc3ccccc3)C1=C[C@H](C(C)(C)C)O[C@@H]2C | · | 2.1 | · | i | · | · | -5 | -4 | -0.3
O=C(CCN1CCC(c2ccccc2)C1)c1cccs1 (stereo not drawn) | -3.3 | · | 0% | · | 0.63 | 46 | · | · | ·
CCNC1(C(N)=O)CCN(Cc2ccccc2)CC1 | 2.1 | -3.9 | 1% | i | 0.64 | · | 15 | 10 | 0.3
O=C(NCCCOc1ccc([N+](=O)[O-])cc1Cl)OCc1ccccc1 | -2.2 | 1.1 | -2% | i | · | · | -2 | -11 | -2.9
C[C@H](O)C#Cc1ccc([C@@H]2[C@H](CO)N3CCCCN(C(=O)c4cccc(F)c4)C[C@@H]23)cc1 | · | -1.2 | · | i | · | · | 2 | -6 | 6.3
Cc1ccc(S(=O)(=O)Nc2ccc(-c3nnc(SCc4ccccc4Cl)o3)cc2)cc1 | 0.2 | 2.6 | -4% | i | 0.75 | -4 | · | · | ·
Cc1cc(CNC(=O)COC(=O)Cn2[nH]c(=O)c3ccccc3c2=O)cc(C)c1O | 0.9 | -0.5 | 0% | i | 0.67 | · | 5 | 6 | -1.5
O=C(Nc1ccccc1[N+](=O)[O-])C1(c2ccccc2)CCOCC1 | -4.5 | 4.3 | 7% | i | 0.71 | -14 | -13 | -15 | 2.5
CCOc1ccc(S(=O)(=O)NC2CC2)cc1 | -0.9 | 0.0 | -7% | i | 0.63 | -13 | 6 | 6 | -0.5
Cc1ccc(OCC(=O)Nc2cc(-c3nn4c(C)nnc4s3)ccc2C)cc1 | 5.6 | 3.7 | -9% | i | 0.72 | -20 | 3 | 4 | -0.9
COc1ccc(N2CCN(C(=O)CSc3nnc4ncccn34)CC2)cc1 | -0.6 | · | 11% | · | 0.73 | 54 | · | · | ·
O=C(Cn1cc([N+](=O)[O-])cn1)Nc1cccnc1 | 1.2 | 2.7 | 4% | i | 0.71 | -14 | -1 | 10 | -3.6
O=C(CC(c1cccs1)S(=O)(=O)c1ccccc1)c1ccc(F)cc1 (stereo not drawn) | 0.1 | · | 21% | · | 0.68 | -23 | · | · | ·
COc1ccc(OC)c(NC(=O)CSc2nnc3ccc(-c4ccncc4)nn23)c1 | -1.6 | -17 | -6% | i | 0.68 | -12 | -3 | -2 | 2.5
COc1cc(CCC(=O)OCC(=O)NCC2CCCCC2)cc(OC)c1OC | 0.2 | -0.2 | 25% | i | 0.67 | · | -8 | 2 | 1.5
Cc1cc(=O)n(CCCc2ccccc2)[nH]1 | 3.4 | 0.5 | · | i | 0.67 | 13 | -4 | 1 | -0.4
COc1ccc(NC(=O)C2CCCCN2N)cc1OCC(C)C (stereo not drawn) | 1.0 | 9.7 | -1% | i | 0.69 | -8 | 7 | -3 | 3.8
CCCC(=O)c1ccc(-c2ccccc2)cc1 | -1.7 | · | 2% | · | 0.73 | · | · | · | ·
CC(=O)c1ccccc1NC(=O)CSc1nnc(Cc2csc(C)n2)o1 | -1.2 | -1.0 | -4% | i | 0.7 | -7 | 6 | 4 | 1.0
